# Arbovirus inh – antivirals against arbovirus infection | arbovirus infection cell-based antiviral screen | inhibition, % at 10 µM | 200,000 tested, 0.37% active;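 active = inhibition from about 30%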;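 note: bluetongue infection of BSR cells; cell survival read as ATP light after 72 h; 0% = infected wells without compound and 100% = uninfected wells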
# RecA splice inh – Mtb RecA intein splicing inhibition | P9WHJ3 | cell-free RecA intein splicing, fluorescence | inhibition, %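 (about 9 µM by stock and volumes)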 | 290,000 tested, 0.75% active; in the data active = inhibition above about 30%; inconclusive = no clear call, values can overlap the other calls;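 note: 0% = vehicle wells and 100% = reference inhibitor control wells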
# Target sequence (P9WHJ3 whole entry, looked up, canonical isoform): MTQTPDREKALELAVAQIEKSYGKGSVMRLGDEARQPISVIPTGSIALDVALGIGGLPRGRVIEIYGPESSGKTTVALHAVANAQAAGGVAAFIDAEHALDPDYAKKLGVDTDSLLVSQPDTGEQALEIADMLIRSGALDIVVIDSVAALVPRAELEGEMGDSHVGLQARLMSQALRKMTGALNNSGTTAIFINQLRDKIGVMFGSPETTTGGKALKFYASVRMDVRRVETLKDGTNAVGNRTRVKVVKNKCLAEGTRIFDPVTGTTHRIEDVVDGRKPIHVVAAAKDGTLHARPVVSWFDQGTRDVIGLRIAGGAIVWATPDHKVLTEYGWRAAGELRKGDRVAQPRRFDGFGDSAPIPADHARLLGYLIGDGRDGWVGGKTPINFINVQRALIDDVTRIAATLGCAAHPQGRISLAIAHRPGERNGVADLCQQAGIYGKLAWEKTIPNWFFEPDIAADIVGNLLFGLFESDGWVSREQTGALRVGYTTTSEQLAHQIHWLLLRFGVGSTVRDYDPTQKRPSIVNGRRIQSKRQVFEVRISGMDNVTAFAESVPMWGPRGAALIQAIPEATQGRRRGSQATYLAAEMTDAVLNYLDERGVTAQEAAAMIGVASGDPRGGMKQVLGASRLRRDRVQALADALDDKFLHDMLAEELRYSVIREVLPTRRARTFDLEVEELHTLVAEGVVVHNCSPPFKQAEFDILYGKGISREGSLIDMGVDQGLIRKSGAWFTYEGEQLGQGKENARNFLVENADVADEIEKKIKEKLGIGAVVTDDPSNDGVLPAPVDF
# YopH PTP inh – blocks Yersinia enterocolitica YopH tyrosine phosphatase. fluorescence Ex485/Em525. AID 898. inhibition, %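 (about 10 µM by stock and volumes)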. 140,000 tested, 0.16% active;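 active = inhibition of 50% or more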;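 note: controls were vehicle for no effect and minimum signal wells for full effect; inactives centre near -20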
# Mtb H37Rv – M. tuberculosis H37Rv growth inhibitors, H37Rv strain (AID 1626); M. tuberculosis H37Rv growth inhibition; higher % means a stronger effect; one-dose inhibition, % at 10 µM; IC50 in µM for titrated hits; 220,000 tested, 0.95% active;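 active = confirmed in a dose series; inconclusive = inhibition above 80% but not taken into the dose series; inactive = below 80% or under 30% at every dose of the series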;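 note: bacteria incubated seven days before Alamar blue readout; 0% = bacteria only wells and 100% = bacteria with antibiotic wells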
# Mtb betalactam – beta-lactam sensitization of Mtb H37Rv; AID 434955; M. tuberculosis H37Rv growth with meropenem, percent inhibition; hits of this screen are not shown here; inhibition, % at 25 µM; 330,000 tested, 0.27% active;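 active = about 74% or more and at least 40 points above the plate without the antibiotic, then above 30% in a dose series; inconclusive = first-round hits that could not be retested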;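 note: growth measured after seven days incubation then overnight dye step; 0% = bacteria only wells and 100% = bacteria with antibiotic; twin plates without the antibiotic show which effects depend on it; some results filed as inactive read as strong as hits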
# Arbovirus inh repeat – also measured in Arbovirus inh; calls as there; inhibition, %; measured here: 10K subset replicate screen; many hits read low in the repeat;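 first of two repeat runs on a subset; 0% = infected and 100% = uninfected wells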
# Active calls of the source: *; ? = inconclusive; / = no result given.
SMILES,Arbovirus inh,RecA splice inh,YopH PTP inh,Mtb H37Rv,Mtb betalactam,others
COc1ccc(CN2C3CCCC2CC(NC(=O)Nc2ccccc2C)C3)cc1 (centres undefined),-5,1.0,12,-17%,0,
CCOc1ccccc1NS(=O)(=O)c1ccc(-c2cnc(C3CC3)o2)cc1,/,-7.4,/,/,-1,
Cc1ccc(C(=O)OCC(=O)NCc2cccs2)cc1,6,/,-18,-6%,2,
Cc1nn(CC(=O)c2ccccc2Cl)c(C)c1[N+](=O)[O-],7,4.1,/,6%,-6,
Cc1ccc(SCCSc2nc(N)cc(=O)[nH]2)cc1,/,0.6,/,/,1,
COCCC(=O)N1CCCC(C(=O)c2ccc3c4c(cccc24)CC3)C1 (centres undefined),6,6.1,/,1%,-4,
Cc1cccc(NC2=NCC(=O)N2Cc2ccccc2)c1,21,0.9,-1,-12%,-3,
CC1=C(C)C(O)N(Cc2ccccc2)C1=O (centres undefined),/,2.2,/,/,2,
O=C(c1cc([N+](=O)[O-])ccc1N1CCOCC1)N1CCCC1,8,-3.3,10,-5%,2,
COC(=O)CC(C(=O)Nc1cc(C(=O)OC)cc(C(=O)OC)c1)N1CCN(C)CC1 (centres undefined),/,-3.0,-9,/,-8,
S=c1[nH]c(-c2ccccc2)cn1/N=C/c1ccccc1Br,-10,2.1,/,6%,-15,
Cc1ccc(CN(C(=O)c2csnn2)C(C(=O)NC2CCCC2)c2ccc(C)o2)cc1 (centres undefined),-8,1.7,0,-7%,-5,
Cc1ccc(-c2ccc(CCC(=O)O)n2-c2cccc(C(=O)O)c2)cc1,/,-1.3,/,/,-1,
CCc1cccc(C)c1NC(=O)C1CCN(c2nn3c(=O)cc(C)nc3s2)CC1,/,1.0,/,/,1,
Cc1ccc(S(=O)(=O)N(CC(=O)N2CCCC2)C2CCCCC2)cc1,2,-0.9,18,-10%,3,Arbovirus inh repeat=7
Nc1nc(C23CC4CC(CC(C4)C2)C3)cs1,1,3.2,-27,-2%,3,
CCOC(=O)Cc1csc(NC(=O)c2ccncc2)n1,13,2.0,-30,-22%,7,
O=C(CSc1nc(-c2ccccc2)c(-c2ccccc2)o1)N1CCOCC1,-10,7.2,-28,2%,2,Arbovirus inh repeat=-8
Clc1ccc(N2COC3c4cccc5cccc(c45)C32)cc1 (centres undefined),-7,/,-24,-1%,-14,
COc1ccc(NC(=O)C2CCCN(S(=O)(=O)c3ccc4c(c3)oc(=O)n4C)C2)c(OC)c1 (centres undefined),1,0.5,-5,2%,1,
CCCCN(CC)C(=O)/C=C/c1cccc([N+](=O)[O-])c1,0,1.8,-34,4%,1,
Cn1c(-c2ccc3c(c2)OCO3)cnc1NC(=O)CCC(=O)NCCc1ccccc1,-7,/,-7,-6%,4,
COc1cc2c(C(=O)Nc3ccc4c(c3)OCO4)cn(CC(C)C)c(=O)c2cc1OC,-9,3.3,14,/,2,
COc1ccc(NC(=O)NNS(=O)(=O)c2cc(C)ccc2C)cc1OC,/,1.2,/,/,0,
Cc1cc2ccccn2c1C(=O)c1nc(NCc2ccccc2)ncc1Cl,3,-1.8,/,5%,9,
O=C(NCCCn1ccnc1)c1ccco1,2,-1.5,-30,-12%,-14,
CC(C)[C@H](NC(=O)OCc1ccccc1)C(=O)N[C@@H](Cc1c[nH]c2ccccc12)C(=O)O,/,0.9,/,/,-9,
Cc1ccc2nc(-c3ccc(O)cc3)c(Nc3ccc4c(c3)OCCO4)n2c1,-11,-0.4,-1,-5%,2,
CCC(C)NC(=O)CN(C1CCCCC1)S(C)(=O)=O (centres undefined),1,-3.8,/,2%,-2,
CCOc1ccc(N2CC(C(=O)NC3=NCCS3)CC2=O)cc1 (centres undefined),3,-0.4,/,1%,5,
COC(=O)C(Cc1cnc(Cl)s1)(C(=O)OC)c1ccc([N+](=O)[O-])cc1,2,1.7,-3,-9%,-1,
C/C(CC(=O)Nc1cccnc1)=N/NC(=O)COc1ccc(Cl)cc1Br,/,10,/,0%,1,
Cc1ccc(C)c(NC(=O)Cn2nnc(C(=O)NCc3ccco3)c2N)c1,/,-0.5,/,/,0,
Oc1ccc(CNC2CCCCC2)cc1,6,1.4,-33,-3%,4,
Cc1ccc(C(=O)CC2(O)C(=O)N(C)c3ccc(Br)cc32)c(C)c1 (centres undefined),-13,2.0,-18,0%,2,Arbovirus inh repeat=-3
CC1CN(S(=O)(=O)c2cccc(C(=O)NNC(=O)C(C)Oc3ccccc3F)c2)CC(C)O1 (centres undefined),/,1.8,/,/,-2,
COc1ccc(Cl)cc1NC(=O)C(C)N1CCc2ccccc21 (centres undefined),-3,/,/,3%,2,
O=C(Nc1ccncc1)c1cc(-c2ccccn2)nc2ccc(Br)cc12,-3,-1.1,/,7%,-11,
Cc1[nH]c(C)c(S(=O)(=O)NCc2ccccc2Cl)c1C(=O)N1CCCC1,/,2.0,/,/,6,
CN(c1ccccc1C(=O)NC1CCCCC1)S(=O)(=O)c1ccccc1,0,-1.6,/,-1%,4,
O=C1C=CC[C@H](/C=C/C[C@@H](O)C[C@H](O)CCc2ccccc2)O1,/,4.3,/,-3%,-9,
Cc1nc(C(F)(F)F)nc(Nc2ccc(N=Nc3ccccc3)cc2)c1C#N,-4,0.6,8,-10%,4,
CCCCC(CCC(=O)Nc1ccccc1C(=O)OCC)C(=O)O (centres undefined),-2,0.2,-37,-1%,5,
COc1ccc(Cc2nnc(SCC(=O)NC(C)c3ccccc3)o2)cc1 (centres undefined),-5,1.5,-29,-3%,-11,Arbovirus inh repeat=-4
Cc1c(Cl)cccc1NC(=O)CCC(=O)N/N=C/c1ccco1,/,-1.3,/,/,0,
Cc1ccc(S(=O)(=O)N2CCCCC2)cc1C(=O)NC1CC(C)(C)NC(C)(C)C1,/,-1.1,/,/,-8,
COc1cccc(OCCOc2ccc(/C=C3/SC(=S)NC3=O)cc2)c1,/,1.3,/,/,98,
CC(=O)c1c(C)n([O-])c2ccc(C)cc2[n+]1=O,-4,-6.3,-44,24%,20,

# Reprinted from the part before: 3 compounds, then new ones.
SMILES,Arbovirus inh,RecA splice inh,YopH PTP inh,Mtb H37Rv,Mtb betalactam,others
Cc1ccc(S(=O)(=O)N2CCCCC2)cc1C(=O)NC1CC(C)(C)NC(C)(C)C1,/,-1.1,/,/,-8,
COc1cccc(OCCOc2ccc(/C=C3/SC(=S)NC3=O)cc2)c1,/,1.3,/,/,98,
CC(=O)c1c(C)n([O-])c2ccc(C)cc2[n+]1=O,-4,-6.3,-44,24%,20,
O=C(CC1C(=O)NCCN1Cc1ccc(F)cc1Cl)NC1CCCCCCC1 (centres undefined),/,1.1,/,/,?,
CC(OC(=O)c1cccc(O)c1)C(=O)N(C)Cc1ccccc1 (centres undefined),/,1.9,/,/,2,
Nc1ccc2c(c1)Nc1ccccc1CC2,-2,0.1,/,-2%,46,
COc1ccc(CN2CCN(c3ccccc3F)CC2)cc1O,8,-3.4,-25,-17%,8,
Cc1[nH]n(-c2ccc(F)cc2)c(=O)c1/C=N/c1sc2c(c1C#N)CCCC2,8,-0.6,-21,7%,65,
CN1C=C/C(=C\c2cc[n+](C)c3ccccc23)c2ccccc21,-4,71*,/,?,/,
CN1CCN(CC#CCOc2ccc(Cl)cc2)CC1,/,-3.5,/,/,-1,
O=C(CSc1nc2nc(-c3cccs3)cc(C(F)(F)F)c2c(=O)[nH]1)Nc1c(F)c(F)c(F)c(F)c1F,2,4.9,/,-2%,-2,
Cn1c(=O)c(=O)n(C)c2cc(S(=O)(=O)NCCN3CCN(c4ccccc4F)CC3)ccc21,/,0.8,/,-12%,-10,
CN1CCN(S(=O)(=O)c2ccc(NC(=O)c3ccccc3F)cc2)CC1,/,1.5,/,/,0,
CC1CN(S(=O)(=O)N2CCOCC2)CCN1S(=O)(=O)N1CCOCC1 (centres undefined),3,-0.5,/,8%,-10,
O=C(c1ccccc1)C1CCN(C(=O)C2CCC(=O)N(Cc3ccccc3F)C2)CC1 (centres undefined),/,-0.2,/,/,-5,

# The closing 3 entries of the part before open the next one.
SMILES,Arbovirus inh,RecA splice inh,YopH PTP inh,Mtb H37Rv,Mtb betalactam,others
CN1CCN(S(=O)(=O)c2ccc(NC(=O)c3ccccc3F)cc2)CC1,/,1.5,/,/,0,
CC1CN(S(=O)(=O)N2CCOCC2)CCN1S(=O)(=O)N1CCOCC1 (centres undefined),3,-0.5,/,8%,-10,
O=C(c1ccccc1)C1CCN(C(=O)C2CCC(=O)N(Cc3ccccc3F)C2)CC1 (centres undefined),/,-0.2,/,/,-5,
COC(=O)CNC(=O)c1cccc(Cl)c1,5,0.9,/,-7%,-1,
Cc1ccc(CN2CCC(C(=O)NCCC(C)C)CC2)o1,-10,0.7,-9,-3%,-1,
CCOC(=O)C1(CCOc2ccccc2)CCN(Cc2ccc3c(c2)OCCO3)CC1,4,0.9,/,-3%,8,
CC(/C=N/NC(=S)Nc1cccc(S(=O)(=O)N(C)C)c1)c1ccccc1 (centres undefined),3,1.3,-23,1%,0,
COc1cc(CN2CCC(n3nccc3NC(=O)c3ccc4c(c3)OCO4)CC2)ccc1O,/,1.7,/,/,?,
NC(=O)Cn1c(=O)n(-c2ccccc2)c(=O)c2oc3ccccc3c21,5,-0.3,/,6%,12,
COc1ccc(-c2c(=O)n(OCc3nc4ccccc4[nH]3)c3ccccc3[n+]2[O-])cc1,/,-1.8,/,-13%,1,
Cc1cccc(NC(=S)N(C)C2(c3ccccc3Cl)CCCCC2=O)c1 (centres undefined),-5,-3.1,1,-12%,-12,
O=C(Cc1cccc2ccccc12)Nc1cc(Cl)ccc1C(=O)O,/,1.5,/,/,-4,
COc1cc2c(cc1OC)C(C(=O)N1CCN(c3ccccc3)CC1)C(c1cccs1)N(C)C2=O (centres undefined),14,/,8,-6%,-5,
O=C(O)c1ccccc1C(=O)Nc1ccccc1,8,0.4,-17,-1%,11,
C=Cn1cc[n+](CC(=O)c2cccs2)c1,/,4.7,/,/,-2,
CCOc1ccccc1NC(=O)CSc1nnnn1C1CCCC1,/,-0.1,/,/,0,
CCCCOc1ccc(C2CC(=O)NC2=O)cc1 (centres undefined),3,-0.3,-18,4%,12,
O=C(Nc1cccc(Cl)c1)NC1CCCCC1,-7,3.7,-7,9%,99,
CCC(c1nnnn1C(C)(C)C)N(Cc1cccs1)Cc1cc2cc(C)c(C)cc2n2nnnc12 (centres undefined),/,-1.7,5,2%,-18,
COc1ccc(/C=C(/CC(=O)Nc2ccccc2)c2nc3ccccc3s2)cc1,2,1.0,-14,12%,2,
CCN(CC)CCCN=Cc1c(O)n(CCc2ccc(F)cc2)c(=O)[nH]c1=O,-2,-0.1,-33,1%,-10,
O=C(NNS(=O)(=O)Cc1ccccc1)c1ccc([N+](=O)[O-])cc1,/,0.7,/,0%,9,
CCc1ccc(-c2ccc(SCc3ccccn3)nn2)cc1,-13,-0.9,/,-1%,5,
Nc1c(C(=O)O)sc2nc(-c3ccccc3)c3c(c12)CCCC3,-13,-4.0,-17,0%,4,
CC1CCN(CCc2nc3cc(NC(=O)COc4ccc(Cl)cc4)ccc3n2C)CC1,/,1.1,/,/,7,
Cc1nc(=O)c(-c2ccccc2)c(C)n1CCCO,-2,1.1,-16,/,-8,
CC(C)C(=O)Nc1ccc(-c2ccc3nncn3n2)cc1,1,-1.4,/,9%,-1,

# A portion from further up, for reference:
SMILES,Arbovirus inh,RecA splice inh,YopH PTP inh,Mtb H37Rv,Mtb betalactam,others
CCOc1ccccc1NC(=O)CSc1nnnn1C1CCCC1,/,-0.1,/,/,0,
CCCCOc1ccc(C2CC(=O)NC2=O)cc1 (centres undefined),3,-0.3,-18,4%,12,

# The results go on.
SMILES,Arbovirus inh,RecA splice inh,YopH PTP inh,Mtb H37Rv,Mtb betalactam,others
CC(OC(=O)COc1ccccc1Cc1ccccc1)C(=O)N(C)c1ccccc1 (centres undefined),/,16,/,/,-2,
Nc1nc(N2CCCCC2)nc(N2CCCCC2)n1,6,-0.7,-16,4%,16,
CC(/C=C1\SC(=S)N(CCC(=O)Nc2ccccc2O)C1=O)=C\c1ccccc1,/,1.2,/,/,8,
O=S(=O)(c1ccccc1)N1CCCc2ccccc21,/,1.2,/,/,-5,

# An excerpt. The share of hits here may be higher or lower than overall.
